Screening results: PubChem, several laboratories
rRNA inh HTS: reduced GFP signal of wild-type E. coli, primary screen, bacterial rRNA inhibitor project, GFP/RFP fluorescence, OD600, single point. GFP signal change (wild-type ribosome), % (no concentration beside the values). 350,000 compounds, 1.6% hits. AID 720706, 2013. E. coli WT GFP vs humanized-ribosome RFP mutants, 24 h; active compounds read low; DMSO median 0, no signal -100;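 active = significant combined selectivity score with lowered wild-type GFP, culture density cut under 30%, mutant RFP and density less affected; inactive = any of these conditions unmet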; also: one replicate is shown; some compounds called inactive have numbers as strong as hits
Vif TR-FRET: inhibitors of Vif binding to APOBEC3G peptide, primary screen, biochemical, TR-FRET, GST-Vif 1-94, biotin-A3G peptide, dose response retest (AID 1117319). 260,000 compounds, 0.57% hits. one-dose inhibition, %; IC50 in µM for titrated hits. Virion infectivity factor (Human immunodeficiency virus type 1 group M subtype B (isolate …. TR-FRET GST-Vif / biotin-A3G peptide binding; higher % means a stronger effect; test concentration not given here; strong numbers were not always called active;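 active = above the screen mean plus three standard deviations and confirmed in dose response; inconclusive = results disagree or hit not tested in dose response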;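 also: Vif residues 1-94 fused to GST binding biotinylated APOBEC3G peptide 110-148; 0% = full assay without inhibitor and 100% = GST in place of GST-Vif; retest series ran down from 100 µM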
ALR H2O2 inh: inhibitors of human ALR sulfhydryl oxidase, primary screen, biochemical, H2O2 detection, HRP-luminol luminescence, single point | 290,000 compounds, 3.8% hits | inhibition, % (test concentration not listed) | purified ALR, DTT oxidation | FAD-linked sulfhydryl oxidase ALR (Homo sapiens), P55789;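 active = mean and each replicate at 75% or more; inconclusive = only one of the two met; inactive = neither met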;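 also: stock transfer was 7.5 nL into about 7.5 µL; 0% = neutral wells and 100% = wells with inactivated enzyme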
Target sequence (P55789 whole entry, looked up): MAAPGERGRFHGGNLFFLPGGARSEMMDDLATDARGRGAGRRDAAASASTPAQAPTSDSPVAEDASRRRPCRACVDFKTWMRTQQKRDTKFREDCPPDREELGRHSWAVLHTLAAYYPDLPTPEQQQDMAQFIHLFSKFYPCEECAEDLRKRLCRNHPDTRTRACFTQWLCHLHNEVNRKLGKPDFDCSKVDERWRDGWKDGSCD
AF4-AF9 inh: inhibitors of AF4 peptide binding to AF9, primary screen, biochemical, AlphaScreen, biotin-AF4 peptide, FLAG-AF9, single point; AID 651704, 2012; inhibition, % at 10 µM; 350,000 compounds, 0.47% hits;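 active = every replicate reaching a set inhibition limit, whatever the replicate mean, cut at about 25% in these data; inconclusive = mean inhibition reaches that limit but some replicates miss it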;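 also: 0% = plate neutral control median and 100% = total signal loss; the record names both 10 and 1 µM as test concentration; the first replicate is given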
Target sequence (P42568 whole entry, looked up): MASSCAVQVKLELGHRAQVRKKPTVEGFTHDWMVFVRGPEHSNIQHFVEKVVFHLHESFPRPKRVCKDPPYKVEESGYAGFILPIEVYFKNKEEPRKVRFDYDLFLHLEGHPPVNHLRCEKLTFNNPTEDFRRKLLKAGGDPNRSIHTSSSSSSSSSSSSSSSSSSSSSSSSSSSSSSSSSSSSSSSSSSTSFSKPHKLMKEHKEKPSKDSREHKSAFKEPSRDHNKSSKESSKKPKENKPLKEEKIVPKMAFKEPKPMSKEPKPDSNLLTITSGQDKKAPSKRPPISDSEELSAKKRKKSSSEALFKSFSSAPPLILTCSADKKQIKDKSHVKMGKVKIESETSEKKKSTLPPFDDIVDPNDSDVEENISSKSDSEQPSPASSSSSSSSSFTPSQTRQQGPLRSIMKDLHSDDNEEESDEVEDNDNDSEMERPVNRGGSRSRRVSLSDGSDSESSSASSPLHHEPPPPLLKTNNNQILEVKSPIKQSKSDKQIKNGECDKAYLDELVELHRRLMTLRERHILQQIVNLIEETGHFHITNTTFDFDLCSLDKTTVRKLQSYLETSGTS
HNF4A DNA FP: change in binding of human HNF4A to DNA, primary screen, biochemical, fluorescence polarization, FITC-DNA; activity change, % at 10 µM; AID 1224865, 2016; 360,000 compounds, 0.3% hits; 1 h; in the data active = activity change above about 30%, passing the limit was not always enough;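 also: controls were the assay level and a saturating level of protein; the project sought stronger binding though the title names inhibitors; some compounds called inactive have numbers as strong as hits; positive values seem to mean higher polarization but the record does not say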
Ecoli growth: E. coli growth inhibition, primary screen, OD600. Escherichia coli growth, 23 h; active compounds read low. AID 1053175, 2014. OD600 absorbance (no concentration beside the values). 330,000 compounds, 0.21% hits;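 active = OD600 absorbance below the run mean of sample wells minus 3.6 SD, in any replicate, cut at about 0.56 in these data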;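 also: stock transfer was 300 nL into about 60 µL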
FGF22 binding: binders of human FGF22 protein, primary screen, FGF22 synaptogenesis inhibitor project, biophysical, thermal shift, single point; calls only at 9.99 µM; Fibroblast growth factor 22 (Homo sapiens), Q9HCT0; recombinant FGF22 thermal shift, SYPRO orange fluorescence; percent of sucrose octasulfate shift, DMSO zero; 340,000 compounds, 1.5% hits;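 active = melting point raised past a set limit in the mean and every replicate; inconclusive = no clear call; three in four hits are not shown here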
Target sequence (Q9HCT0 whole entry, looked up): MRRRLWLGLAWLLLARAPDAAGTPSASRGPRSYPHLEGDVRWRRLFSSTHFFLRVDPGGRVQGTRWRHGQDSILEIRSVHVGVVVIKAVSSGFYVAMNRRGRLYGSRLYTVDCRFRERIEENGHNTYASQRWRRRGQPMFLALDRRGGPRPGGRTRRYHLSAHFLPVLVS
rRNA inh HTS OD600: recorded beside rRNA inh HTS, whose call it bears; OD600 change, %; measured here: OD600 growth;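 optical density of the mix in the first replicate; 0 = DMSO median and -100 = no signal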
rRNA inh HTS RFP: recorded beside rRNA inh HTS, whose call it bears; RFP signal change, %; measured here: RFP humanized mutant strains;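 first replicate; 0 = DMSO median and -100 = no signal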
Active calls of the source: *; i = inactive; ? = inconclusive; . = no result given; & = joins results of further samples. A portion of the library; the hit share may differ from the screen's.

SMILES	rRNA inh HTS	rRNA inh HTS OD600	rRNA inh HTS RFP	Vif TR-FRET	ALR H2O2 inh	AF4-AF9 inh	HNF4A DNA FP	Ecoli growth	FGF22 binding
CC(=O)Nc1cc(-c2ccc(C(=O)NC3CC3)cc2)cn2c(-c3ccc(F)c(Cl)c3)cnc12	1	-2	3.6	.	.	0.7	11	.	i
O=C(OCc1nnc(-c2ccc([N+](=O)[O-])cc2)o1)c1ccc(F)c(S(=O)(=O)N2CCOCC2)c1	2	1	-1.9	11%	.	-4.6	-0.6	0.68	i
COc1ccc(N2C3=[N+](CC2(C)O)c2ccccc2CC3)cc1 (stereo not drawn)	13	5	-9.4	30%	-24	-52	3.8	0.7	i
Cc1ccc(C(=O)OCC(=O)NCc2ccco2)cc1	.	.	.	12%	4	.	-3.0	0.74	.
C[C@H](CO)N1C[C@H](C)[C@H](CN(C)S(=O)(=O)c2cn(C)cn2)Oc2ccc(NC(=O)CCCN(C)C)cc2C1=O	3	3	-0.4	.	.	-2.5	.	.	i
COc1ccc2c3c(n(C)c2c1)[C@@H](CO)N(C(=O)C1CCOCC1)CC31CCN(Cc2cccc(F)c2)CC1	-2	1	-2.3	.	.	-1.0	.	.	i
CC(=O)N(C)C[C@@H]1Oc2ncc(C#CC3(O)CCCC3)cc2C(=O)N([C@H](C)CO)C[C@H]1C	-2	-2	-2.6	.	.	-3.7	.	.	i
COc1ccc([C@@H]2CC=C(C(=O)O)[C@H](c3ccc(C)cc3)N2S(=O)(=O)c2ccccc2C)cc1	-5	-17	-6.2	.	.	-2.6	1.2	0.71	i
Cc1nnc(SCC(=O)NC2CCCc3ccccc32)n1-c1ccccc1 (stereo not drawn)	4	7	1.8	16%	-5	0.3	1.6	0.7	i
CCn1ccnc1CN(C)Cc1cn[nH]c1-c1ccc(OC)c(F)c1	-4	4	-1.6	3%	.	2.9	-1.5	0.72	i
COc1ccc(-c2csc(NC(=O)CS(=O)(=O)c3ccccc3)n2)cc1	-1	4	0.9	5%	-1	-9.0	-0.8	0.61	i
Cc1noc(C)c1S(=O)(=O)Nc1ccc2c(c1)CC(=O)N([C@@H](C)CO)C[C@H](C)[C@@H](CN(C)S(=O)(=O)c1cccs1)O2	-3	-4	-1.7	.	.	2.4	.	.	i
O=C(Cc1ccc(S(=O)(=O)N2CCOCC2)s1)Oc1ccc(F)cc1	5	-1	2.5	1%	10	-13	1.2	0.72	i
Cc1ccc2c(CN3CCN(c4ccccc4F)CC3)cc(=O)oc2c1	1	0	4.0	.	.	-1.9	1.2	.	i
CC1CN(C(=O)c2cc(S(=O)(=O)N3CCN(c4ccccc4)CC3)ccc2Cl)CC(C)O1 (stereo not drawn)	4	-7	-1.8	-2%	11	1.4	0.9	0.7	i
COc1ccc(OC)c(CN2CCN(C(=O)c3ccc(C)c(S(=O)(=O)Nc4ccccc4OC)c3)CC2)c1	-3	-10	12	.	.	33*	6.0	0.68	i
O=C(CSc1nnc(CNC(=O)c2ccc(F)cc2)o1)NCc1ccccc1	2	5	0.0	-9%	1	0.0	-4.1	0.7	i
C[C@@H]1CN([C@@H](C)CO)C(=O)Cc2cc(NC(=O)Nc3ccc(F)cc3)ccc2O[C@H]1CN(C)C(=O)NC1CCCCC1	-1	-2	-1.7	.	.	-0.1	.	.	i
COc1cccc(NC(=O)COc2c(F)c(F)c(C(F)(F)F)c(F)c2F)c1	6	3	2.8	.	-2	5.0	2.7	0.72	i
COc1ccc(/C(C)=N/Nc2cccc(C(=O)O)c2)cc1OC	22	18	8.4	0%	-14	-1.4	-0.4	.	i
CO[C@@H]1CN(C)C(=O)c2ccc(NC(=O)C3CC3)cc2OC[C@@H](C)N(CCc2ccccc2)C[C@H]1C	-6	-12	2.4	.	.	3.7	.	.	i
Cc1cccc(C)c1Nc1nnc(SCC(=O)NCCCN2CCCC2=O)s1	8	7	0.7	.	3	-4.3	0.3	0.7	i
C=CCn1c(SCC(=O)c2ccc(Cl)s2)nc2ccccc2c1=O	.	.	.	-7%	0	.	2.8	0.75	.
O=c1c2ccccc2nc(/C=C/c2ccc([N+](=O)[O-])cc2)n1CCCO	.	.	.	.	1	.	-1.1	0.64	.
CN1CCN(C(=O)C[C@H]2CC[C@H]3[C@H](COc4ccc(NC(=O)C5CCOCC5)cc4C(=O)N3C)O2)CC1	4	3	0.5	.	.	1.1	.	.	i
O=C(NC1CCCc2ccccc21)C(Cc1ccccc1)NS(=O)(=O)c1cccs1 (stereo not drawn)	-20	-25	-7.7	1%	.	-0.2	-2.5	0.72	i
Cc1ncc(CO)c(/C=N/Nc2cccc(Cl)n2)c1O	2	-3	0.9	2%	86*	1.9	-3.5	.	i
Cc1cc(C(=O)Nc2ccc(N3CCOCC3)c3nonc23)ccc1[N+](=O)[O-]	3	-1	-0.8	.	.	-0.7	1.6	0.69	i
Cc1ccc(SCCNC(=O)c2ccccc2C)cc1	.	.	.	9%	-5	.	-0.7	0.73	.
Cc1cccc(OCCNS(=O)(=O)c2ccc(Cl)cc2)c1	-22	-29	6.4	-3%	0	?	-4.7	0.66	i
Cc1nc2ccccc2c2oc(C(=O)N3CCCC(C)C3)cc12 (stereo not drawn)	-20	-13	-2.9	6%	-15	-2.1	0.4	0.67	i
CC1CCCN(S(=O)(=O)c2ccc(NC(=O)C3CC(=O)N(C(C)(C)C)C3)cc2)C1 (stereo not drawn)	7	7	2.3	-8%	-3	1.1	3.2	0.69	.
COc1ccc(CCNC(=O)C(C(=O)c2ccccc2)n2cc(Cl)ccc2=O)cc1OC (stereo not drawn)	.	.	.	.	-8	.	-0.8	0.64	.
O=S1(=O)CC=C(CSC(=S)NC2CCS(=O)(=O)C2)C1 (stereo not drawn)	13	7	-2.2	20%	99*	-31	-2.4	0.56	i
O=C(Cc1ccccc1[N+](=O)[O-])NC1CC1	10	12	2.7	28%	-1	-0.3	-1.0	0.7	i
COc1ccc(CCNC(=O)CSc2nc3ccccc3c3nc(CCN4CCCCC4)nn23)cc1OC	2	-2	3.0	2%	-7	1.7	2.5	0.7	i
COc1ccc(Cl)cc1C(=O)O/N=C(\N)c1ccncc1	4	9	-1.5	13%	-7	-2.3	-1.5	0.68	i
CN1OC2C(=O)N(c3ccccc3)C(=O)C2C1c1ccc(F)cc1 (stereo not drawn)	.	.	.	-2%	-1	.	1.4	0.69	.
O=c1c(Cl)c(NCCCO)cnn1-c1nc2ccccc2[nH]1	.	.	.	9%	24	.	3.4	0.62	.
C[C@@H]1CN([C@H](C)CO)C(=O)c2cc(NC(=O)C3CCCCC3)ccc2O[C@H]1CN(C)S(=O)(=O)c1ccc(F)cc1	-2	2	0.8	.	.	-1.3	.	.	i
Cc1ccc(S(=O)(=O)N(C)C[C@H]2OCCCC[C@@H](C)Oc3ccc(NC(=O)Nc4cccc5ccccc45)cc3C(=O)N([C@H](C)CO)C[C@@H]2C)cc1	1	4	-2.6	.	.	-2.9	.	.	i
COc1ccc(S(=O)(=O)NNC(=O)Nc2ccccc2OC)c(OC)c1	7	11	0.8	.	-4	-0.8	4.5	0.66	i
COc1ccc(NC(=O)CSc2nc(N)c(C#N)cc2C#N)cc1	-6	-4	2.2	-132%	-8	6.1	16	0.69	i
CCn1c(SCC(=O)N2CCCC2)nc2ccccc2c1=O	.	.	.	2%	.	.	-4.4	0.67	.
CC1CN(S(=O)(=O)c2cc(C(=O)N(C)Cc3cccs3)ccc2Cl)CC(C)O1 (stereo not drawn)	2	-26	-6.1	.	-4	1.0	-5.2	0.71	i
Cc1noc(C)c1NC(=O)N(C)C[C@@H]1Oc2ncc(C#CCN(C)C)cc2C(=O)N([C@H](C)CO)C[C@@H]1C	4	1	-1.0	.	.	-0.2&-2.4	.	.	i
O=C1c2ccccc2C(O)(c2ncc[nH]2)N1CCc1ccccc1 (stereo not drawn)	11	4	-1.5	2%	1	3.9	0.8	0.66	i
CCOC(=O)C1(CCCc2ccccc2)CCN(C(=O)CCN2CCCCC2=O)CC1	-1	2	0.3	.	-20	-0.4	1.8	0.69	i
CCCc1nnc(NC(=O)CCC(=O)NC2CCCCC2)s1	18	9	0.6	0%	-5	0.4	3.0	0.78	i
Cc1ccccc1N(CC(=O)NCc1ccco1)C(=O)CCC(=O)Nc1nccs1	-5	-1	-2.4	.	.	-0.8	-1.3	0.76	i
CCC(=O)Nc1cccc(-c2csc(-c3ccccc3)n2)c1	.	.	.	-3%	.	-1.4	5.6	0.65	i
CCCC(=O)Nc1cccc(C(=O)Nc2ccccc2OCC)c1	-27*	-14*	-8.8*	8%	-2	-1.8	.	0.71	i
Cc1ccc(-n2c(C)cc(C3N=C(N)Nc4nc5ccccc5n43)c2C)c(C)c1 (stereo not drawn)	6	-1	11	0%	-1	?	-0.6	0.67	i
C[C@@H]1CCCCO[C@H](CN(C)C(=O)Nc2ccccc2)[C@H](C)CN([C@@H](C)CO)C(=O)c2cc(NC(=O)Nc3ccccc3)ccc2O1	0	-2	-2.8	.	.	-0.4	.	.	i
COC(=O)C(Cc1ccc(O)cc1)NC(=O)NC12CC3CC(CC(C3)C1)C2 (stereo not drawn)	-13	-16	-1.2	4%	19	3.6	-0.6	0.66	i
Cc1nc2cc(C(=O)NCc3cccnc3)ccc2n1-c1ccc(F)cc1F	.	.	.	3%	-4	-0.3	-0.5	0.7	i
O=C(CCCN1C(=O)c2ccccc2C1=O)Nc1nncs1	.	.	.	3%	-2	.	-0.9	0.68	.
CCN(CC)S(=O)(=O)c1ccc(N/N=C(\C)c2ccncc2)nc1	-6	-15	-2.2	.	-1	3.5	3.0	.	i
CO[C@@H]1CN(C)C(=O)c2cc(NC(=O)Nc3cccc(F)c3)ccc2OC[C@@H](C)N(C(C)=O)C[C@@H]1C	-3	-4	1.8	.	.	5.0	.	.	i
COc1cccc(C(=O)OC2CCN(C)CC2)c1	13	7	-0.6	1%	-6	-5.6	-6.5	0.66	i
Cc1ccc(OCC(=O)Nc2ccc3c(c2)nc(CCN2CCN(C)CC2)n3C)cc1	5	0	2.6	9%	0	7.1	-0.1	0.63	i
COc1ccc(S(=O)(=O)NNC(N)=S)cc1	15	14	7.8	.	10	-0.9	4.0	0.67	i
COc1ccc2c3c(n(C)c2c1)[C@H](CO)N(C(=O)CN(C)C)CC31CN(S(C)(=O)=O)C1	7	10	0.3	.	.	2.7	.	.	i

Whole records, looked up by structure:
`COc1ccc2c3c(n(C)c2c1)[C@@H](CO)N(C(=O)C1CCOCC1)CC31CCN(Cc2cccc(F)c2)CC1` is listed with rRNA inh HTS: -2; rRNA inh HTS OD600: 1; rRNA inh HTS RFP: -2.3; Vif TR-FRET: .; ALR H2O2 inh: .; AF4-AF9 inh: -1.0; HNF4A DNA FP: .; Ecoli growth: .; FGF22 binding: i
`C[C@H](CO)N1C[C@H](C)[C@H](CN(C)S(=O)(=O)c2cn(C)cn2)Oc2ccc(NC(=O)CCCN(C)C)cc2C1=O` is listed with rRNA inh HTS: 3; rRNA inh HTS OD600: 3; rRNA inh HTS RFP: -0.4; Vif TR-FRET: .; ALR H2O2 inh: .; AF4-AF9 inh: -2.5; HNF4A DNA FP: .; Ecoli growth: .; FGF22 binding: i
